CtBP-E1A blk: blocks the CtBP interaction with E1A. AlphaScreen GST-E1A/His-CtBP binding, 1536-well; hits give low values; control for the full effect not named in the record. activity change, % (concentration not given with the values). actives 0.49% (n = 340,000); in the data active means activity change below about -65%; inconclusive means about -30% to -65%; inactive means above about -30%; note: % is set by controls: 0 for no effect and ±100 for the full control effect
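Homogeneous bead-based format: GST-tagged E1A captured on glutathione donor beads, His-tagged CtBP on nickel acceptor beads; compounds precede bead addition by 2 h at 37 °C.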
ClpP mod: qHTS Assay for Activators of ClpP. ATP-dependent Clp protease proteolytic subunit (Bacillus subtilis (strain 168)), P80244. purified B. subtilis ClpP, FRET peptide cleavage, 20 min. Potency, µM (doses to about 57.5 µM), for inactives: top-dose activity change, negative = active. actives 1.9% (n = 340,000); active = well fitted falling curve with a large enough effect; inconclusive = small, poorly fitted or top-dose-only effect; inactive = no such curve, though single readings can be large or run the other way; note: potency is the fitted concentration of half-maximal effect; the source files actives as falling curves though it sought activators and does not explain the sign; nearly all actives have a fitted effect of over 65% in size; many hits overshoot -100%
Target sequence (P80244 whole entry, looked up): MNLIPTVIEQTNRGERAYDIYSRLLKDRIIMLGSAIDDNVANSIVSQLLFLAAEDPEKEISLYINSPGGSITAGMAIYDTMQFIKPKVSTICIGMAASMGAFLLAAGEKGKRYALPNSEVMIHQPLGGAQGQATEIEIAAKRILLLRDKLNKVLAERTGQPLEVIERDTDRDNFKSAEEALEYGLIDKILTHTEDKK
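Buffer: 100 mM Tris/HCl pH8, 100 mM KCl, 0.05% low protease BSA, 2.5% glycerol, 0.01% Tween-20. ClpP 10 microg/mL final; 20 min RT; delta FRET normalized to ADEP and DMSO controls.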
An asterisk follows results filed as active; ? = inconclusive. An excerpt; count on the stated rates, not on these rows.

SMILES | CtBP-E1A blk | ClpP mod
COc1cccc(C(C)(O)c2nc(-c3cccc(NC(C)=O)c3)cs2)c1 (stereo unspecified) | 4.2 | 0.4%
CCOC(=O)[C@]12CCCC=C1N(Cc1ccc(Cl)cc1Cl)C(=O)[C@H](CC(=O)NCCCCc1ccccc1)C2 | 0.0 | -2.3%
Cc1ccc2cc(NC(=O)C3(C)CCN3C(C)C)ccc2n1 (stereo unspecified) | -5.2 | -6.9%
CCCCn1nnnc1C(c1ccccc1)N1CCN(c2cccc(C)c2C)CC1 (stereo unspecified) | 3.7 | -2.1%
CC(C)(C)NC(=O)C(c1ccc(-c2ccccc2)cc1)n1c(=O)c(-c2cc3ccccc3[nH]2)nc2ccccc21 (stereo unspecified) | 27.3 | 62.6%
COc1ccc(C(O)c2nc(-c3ccccc3C)cs2)cc1 (stereo unspecified) | 3.5 | 0.2%
COc1ccc(C=O)c(-c2c(-c3ccccc3OC)sc3ccccc23)c1 | -2.4 | -1.9%
Cn1ccc2c(N3c4ccccc4CCc4ccccc43)cc3c(c21)C1CCC3O1 (stereo unspecified) | ? | 21.3%
COc1cccc(CNC(=O)[C@@H]2CCCN2C(=O)[C@@H]2CCCN2C(=O)c2ccccc2)c1 | -7.9 | -3.5%
COc1cc(CN2C[C@@H](CO)O[C@@H](n3cnc4c(NC5CCCC5)ncnc43)C2)cc(OC)c1OC | 1.2 | 1.5%
O=C(NCC1CC1)c1csc(COCCO)n1 | 4.1 | 1.3%
COc1ccccc1-c1ncn(Cc2cccc(-c3ccccc3)c2)c1CC(C)C | -7.0 | -8.9%
Cc1ccc(CNC(=O)C2(C)CCN2C(=O)Cc2ccc(-c3ccccc3)cc2)cc1 (stereo unspecified) | 2.1 | 2.7%
CCOc1cc(OCC)cc(C(=O)N2CCC[C@H]2C(=O)N2CCC[C@H]2C(=O)NCc2ccccn2)c1 | 6.8 | -0.6%
O=C(NCc1ccccc1)C1Cc2c(-c3ccc(Cl)cc3)ccnc2O1 (stereo unspecified) | -0.9 | -4.8%
Cc1ccc2cc(NC(=O)C3(C)CCN(C)C3)ccc2n1 (stereo unspecified) | 5.3 | ?
COc1ccc(-c2nc3ccc(C)cn3c2Cc2cccc(F)c2)cc1OC | -9.3 | 5.5%
CC(C)NC(=O)C1(C)CCN1C(=O)c1ccccc1 (stereo unspecified) | 1.9 | 0.1%
CCOC(=O)[C@]12CCC=C1N(Cc1cccc3ccccc13)C(=O)[C@H](CC(=O)NCC1CCCCC1)C2 | -1.5 | -7.9%
COc1ccc(C(O)c2ncc(-c3cccc(C(F)(F)F)c3)[nH]2)cc1 (stereo unspecified) | -4.3 | 1.6%
CCCCC[C@@H](C)N1C[C@@H](COCc2ccccc2)Oc2cc(N3CC[C@@H](N(C)C)C3)ccc2S1(=O)=O | -23.5 | -15.2%
c1ccc(COc2cccc(-c3cc4nc(NCCc5ccncc5)ccn4n3)c2)cc1 | -1.4 | 4.9%
O=C1NC[C@H](CCCCN2CCN(Cc3ccccc3)C(=O)C2=O)N(CCc2ccccc2)C1=O | 0.6 | -0.8%
COc1ccc(-c2cc3nc(NCc4ccc(N(C)C)cc4)n(C)c(=O)c3s2)cc1OC | ? | 4.0%
CC(=O)Nc1cccc(-c2ccnc3c2CC(C)(C(=O)Nc2cccc(NS(C)(=O)=O)c2)O3)c1 (stereo unspecified) | -17.5 | -5.0%

Part of the list above in a different format:
Every second line gives: CtBP-E1A blk, ClpP mod
- CCOc1cc(OCC)cc(C(=O)N2CCC[C@H]2C(=O)N2CCC[C@H]2C(=O)NCc2ccccn2)c1
→ 6.8, -0.6%
- O=C(NCc1ccccc1)C1Cc2c(-c3ccc(Cl)cc3)ccnc2O1 (stereo unspecified)
→ -0.9, -4.8%
- Cc1ccc2cc(NC(=O)C3(C)CCN(C)C3)ccc2n1 (stereo unspecified)
→ 5.3, ?
- COc1ccc(-c2nc3ccc(C)cn3c2Cc2cccc(F)c2)cc1OC
→ -9.3, 5.5%
- CC(C)NC(=O)C1(C)CCN1C(=O)c1ccccc1 (stereo unspecified)
→ 1.9, 0.1%
- CCOC(=O)[C@]12CCC=C1N(Cc1cccc3ccccc13)C(=O)[C@H](CC(=O)NCC1CCCCC1)C2
→ -1.5, -7.9%
- COc1ccc(C(O)c2ncc(-c3cccc(C(F)(F)F)c3)[nH]2)cc1 (stereo unspecified)
→ -4.3, 1.6%
- CCCCC[C@@H](C)N1C[C@@H](COCc2ccccc2)Oc2cc(N3CC[C@@H](N(C)C)C3)ccc2S1(=O)=O
→ -23.5, -15.2%
- c1ccc(COc2cccc(-c3cc4nc(NCCc5ccncc5)ccn4n3)c2)cc1
→ -1.4, 4.9%
- O=C1NC[C@H](CCCCN2CCN(Cc3ccccc3)C(=O)C2=O)N(CCc2ccccc2)C1=O
→ 0.6, -0.8%
- COc1ccc(-c2cc3nc(NCc4ccc(N(C)C)cc4)n(C)c(=O)c3s2)cc1OC
→ ?, 4.0%
- CC(=O)Nc1cccc(-c2ccnc3c2CC(C)(C(=O)Nc2cccc(NS(C)(=O)=O)c2)O3)c1 (stereo unspecified)
→ -17.5, -5.0%

(more compounds)
SMILES | CtBP-E1A blk | ClpP mod
CCCN(CC1CC1)c1cc2c(c3c1ccn3C)C1CCC2O1 (stereo unspecified) | -20.6 | -13.1%
OC[C@@H]1CN(CCN2CCOCC2)C[C@H](n2cnc3c(NC4CCCC4)ncnc32)O1 | -0.2 | -0.5%
O=C(Nc1ccccc1)c1cc(C2CCCCN2C(=O)CCCc2ccccc2)on1 (stereo unspecified) | 1.2 | -2.7%
CC(C)NC(=O)C1(C)CN(S(C)(=O)=O)CC(=O)N1CCOc1ccccc1 (stereo unspecified) | 2.2 | -1.0%
COc1ccc(C(=O)c2[nH]c(N)c(C(=O)NCCc3c[nH]c4ccccc34)c2-c2ccc(OC)c(OC)c2)cc1 | -0.1 | -2.9%
CC(C)(C)OC(=O)NCc1ccc(NC(=O)c2nc[nH]c2C(=O)Nc2cc(Br)ccc2F)cc1 | 2.4 | -14.8%
CC(C)c1ccc(C2OC(CCc3ccccc3)Cc3[nH]c(=S)[nH]c(=O)c32)cc1 (stereo unspecified) | -8.9 | -0.3%
COC(=O)[C@]12CCCCC=C1N(Cc1ccc3c(c1)OCO3)C(=O)[C@H](CC(=O)N1CCOCC1)C2 | 0.9 | 2.2%
O=C(OCc1ccccc1)c1c(-c2ccccc2)oc2c1C(OCCO)CCC2 (stereo unspecified) | 0.2 | 5.0%
Cc1ccc(NC(=O)C2(C)CCN2Cc2ccccc2OC(F)F)cc1 (stereo unspecified) | 16.3 | -0.4%
CCCC(=O)N1CCCC(c2cc(C(=O)NCc3ccccc3)no2)C1 (stereo unspecified) | 2.6 | -0.1%
O=C(NCc1ccccc1)C(c1cccc2ccccc12)n1c(=O)c(-c2ccco2)nc2ccccc21 (stereo unspecified) | -4.1 | 3.7%
O=C(NC1CCCCC1)C(c1ccnc2ccccc12)n1c(=O)c(-c2ccccc2)nc2ccccc21 (stereo unspecified) | -0.9 | -20.2%
COc1ccccc1NC(=O)Nc1nc(C(N)CCc2ccccc2)cs1 (stereo unspecified) | -7.7 | -0.5%
CC(C)CC(N)c1csc(Nc2ccc(S(C)(=O)=O)cc2)n1 (stereo unspecified) | 0.0 | -27.3%
CCCS(=O)(=O)NC(=O)C1(C)CCN(C(=O)Cc2ccc(OC)c(OC)c2)C1 (stereo unspecified) | 5.2 | -0.4%
COc1ccc(OC)c(NC(=O)C2(C)CCN2C(=O)CCC2CCCC2)c1 (stereo unspecified) | -3.0 | -0.5%
CCCCC(=O)N(C)c1c(CC)nc2c(OCC(=O)c3ccc(Cl)cc3Cl)cccn12 | -21.4 | -8.7%
O=C1C(=Cc2ccc(F)cc2)CCc2ccccc21 | -0.1 | -0.1%
O=S1(=O)C[C@@H](N2CC[C@@H](O)C2)[C@H](COCc2ccccc2)N1 | -7.2 | 0.5%
CCCCN(C)c1c(C)nc2ccc(C(=O)NC3CCN(C)CC3)cn12 | 0.0 | -6.3%
OC[C@@H]1CN(Cc2cccc(C(F)(F)F)c2)C[C@H](n2cnc3c(NCc4ccco4)ncnc32)O1 | 5.4 | 6.9%
CC1(C(=O)NS(=O)(=O)c2ccccc2)CCN1C(=O)COc1ccc(Cl)cc1 (stereo unspecified) | 5.4 | 1.1%
COc1ccc(CN2C(=O)c3ccccc3C2c2nnnn2Cc2ccccc2)cc1 (stereo unspecified) | 0.9 | 2.7%
COc1ccc(CCCNC(=O)C2Cc3c(-c4ccc5c(c4)OCO5)ccnc3O2)cc1 (stereo unspecified) | -7.9 | 4.5%
Additional structures.
SMILES | CtBP-E1A blk | ClpP mod
CNc1nc(-c2ccccc2)c2sccc2n1 | 5.2 | 4.5%
COc1ccc(OC)c(NC(=O)C2(C)CCN2C(=O)C2(c3ccc(Cl)cc3)CCC2)c1 (stereo unspecified) | -24.1 | 0.6%
Cc1cnc(CNC(=O)c2ccc3sc([C@H]4C[C@H](O)[C@@H](CO)O4)nc3c2)cn1 | 0.5 | 1.6%
CCCCn1nnnc1C(c1cccc2ccccc12)N1CCN(C/C=C/c2ccccc2)CC1 (stereo unspecified) | -18.9 | -2.3%
CC(C)n1nnnc1C1c2ccccc2C(=O)N1CCOc1ccccc1 (stereo unspecified) | -2.2 | -2.0%
OC1c2cc(Cl)cc(Cl)c2N=C2CCCN21 (stereo unspecified) | 0.7 | 5.4%
CCOC(=O)C(=O)N(C)c1c(CC)nc2c(OCCC3CCCCC3)cccn12 | 0.0 | -4.4%
CCCOc1ccc(F)cc1-c1cc(C(=O)Nc2ccc(C)c(NS(C)(=O)=O)c2)[nH]n1 | -28.9 | -27.1%
COC(=O)c1ccc2nc(-c3cccc(Br)c3)c(Cc3ccc(OC)cc3C)n2c1 | 1.5 | -8.2%
CCCCNC(=O)C[C@@H]1C[C@@]2(C(=O)OCC)CCC=C2N(Cc2ccc3c(c2)OCO3)C1=O | 9.8 | 0.6%
CCCCNC(=O)C1C(c2ccc(OC)cc2)=Nc2ccccc2N1C(=O)Cc1cc(OC)cc(OC)c1 (stereo unspecified) | -18.0 | ?
CCC(=O)N1CCC(C)(C(=O)Nc2cc(OC)c(OC)c(OC)c2)C1 (stereo unspecified) | 7.5 | 1.9%
c1ccc2c(c1)oc1c(-c3ccc4nccn4c3)cccc12 | -10.1 | ?
COc1ccccc1-c1cnc(C(O)c2cc(C)ccc2C)[nH]1 (stereo unspecified) | -9.5 | -9.8%
COc1cccc(C(=O)NCCN2CCC(n3c(=O)[nH]c4ccccc43)CC2)c1 | 3.7 | 0.3%
Cc1ccc(F)c(S(=O)(=O)NC(=O)C2(C)CCN2C(=O)CC2CCCCC2)c1 (stereo unspecified) | 1.9 | 1.3%
CC(=O)Nc1cccc(-c2csc(C(O)c3ccccc3)n2)c1 (stereo unspecified) | -13.4 | -6.3%
CCOC(=O)C1(C)CCCN(C(=O)c2ccc(C#N)cc2)C1 (stereo unspecified) | -6.8 | 0.5%
CCc1nc2ccc(C(=O)Nc3cccc(OC)c3)cn2c1N(CC)Cc1cccc(Br)c1 | -6.7 | -3.5%
CC1(C(=O)Nc2ccc(Cl)c(Cl)c2)CCN1Cc1cc2ccccc2o1 (stereo unspecified) | 11.7 | -0.9%
O=C(NC(c1ccc(-c2ccccc2)cc1)c1cnccn1)C1CCN(Cc2cccs2)CC1 (stereo unspecified) | -7.2 | -0.3%
Cc1nc2c(OCc3cc(Cl)cc(Cl)c3)cccn2c1N(C)C(=O)CCC1CCCC1 | -8.3 | -7.0%
COc1ccc(CNc2nn3c(-c4cccc(C(=O)N(C)C)c4)cnc3s2)cc1 | -15.7 | -0.2%
C[C@@H]1CNC(=O)c2c(C(=O)NC3CCN(C(=O)OC(C)(C)C)CC3)ncn21 | -3.4 | -0.8%
CC1(C(=O)NS(=O)(=O)Cc2cccc(Cl)c2)CCN1C(=O)C/C=C/c1ccccc1 (stereo unspecified) | 0.2 | -0.7%
Going on with the list:
SMILES | CtBP-E1A blk | ClpP mod
CCOC(=O)[C@]12CCC=C1N(Cc1ccccc1)C(=O)[C@H](CC(=O)NCCC(C)C)C2 | -0.8 | -3.0%
COc1cccc(C(O)c2ncc(-c3cccc(F)c3)[nH]2)c1 (stereo unspecified) | -22.2 | -4.3%
Cc1cccnc1C(NC(=O)C1CCN(CCOc2ccc(Cl)cc2Cl)CC1)c1ccc(Cl)cc1 (stereo unspecified) | -1.3 | -0.2%
CCCCCCCCN1C(=O)[C@H](CC(=O)N2CCOCC2)C[C@@]2(C(=O)OC)CCCCC=C12 | -4.0 | 2.6%
CC(=O)Nc1cc(-c2cccnc2)cn2c(-c3ccc(F)cc3)cnc12 | -0.1 | -24.4%
S=c1nc(-c2ccccn2)c(-c2ccccn2)n[nH]1 | -88.8* | -17.0%
Cc1cc(C(=O)N2CCCC2(C)C(=O)NCC(C)C)nn1C(C)(C)C (stereo unspecified) | 1.5 | -1.2%
C(CCN1CCOCC1)CN1CCOCC1 | 8.9 | 1.2%
CCOC(=O)C1CCCN(C(=O)c2ccccc2OC(F)(F)F)CC1 (stereo unspecified) | 5.8 | -1.3%
CCCCNC(=O)C1(C)CCCCN1C(=O)c1cc(OC)ccc1Br (stereo unspecified) | 1.8 | 3.2%

Copied from the results shown (2 entries):
SMILES | CtBP-E1A blk | ClpP mod
CC(=O)Nc1cc(-c2cccnc2)cn2c(-c3ccc(F)cc3)cnc12 | -0.1 | -24.4%
S=c1nc(-c2ccccn2)c(-c2ccccn2)n[nH]1 | -88.8* | -17.0%
